2A firefly: Primary qHTS Assay for Foot and Mouth Disease Virus Antivirals against NCGC Sytravon and CBC Compound Libraries: Firefly Luciferase Signal. Potency, µM (top dose mostly 57.5 µM), without a hit: top-dose signal change, negative = less light. 120,000 tested, 0.23% active. HEK cells with a luciferase reporter of 2A StopGo recoding; active = well fitted falling curve with a large enough effect; inconclusive = small, poorly fitted or top-dose-only effect; inactive = no such curve, though single readings can be large or run the other way; note: nearly all actives have a fitted effect of over 60% in size; overnight with compound
2A Renilla: Primary qHTS Assay for Foot and Mouth Disease Virus Antivirals against NCGC Sytravon and CBC Compound Libraries: Renilla Luciferase Signal | 120,000 tested, 0.32% active | Potency, µM (doses to about 57.5 µM), for the others: at the top dose signal change, negative = less light | HEK cells with a luciferase reporter of 2A StopGo recoding; active means well fitted falling curve with a large enough effect; inconclusive means small, poorly fitted or top-dose-only effect; inactive means no such curve, though single readings can be large or run the other way; note: nearly all actives have a fitted effect of over 55% in size; overnight with compound
Starred values were filed as active, the others as inactive; ? = inconclusive; [ ] = remark or other dose. % is set by controls: 0 for no effect and ±100 for the full control effect; potency is the fitted concentration of half-maximal effect.

Order of results – 2A firefly	2A Renilla
1	CC(Sc1nccn1C)C(=O)Nc1sc2c(c1C#N)CCCCC2 (centres undefined)
    163%[activator]	43%[activator]
2	COc1ccc(OC)c(/C=C(\C#N)c2nc(-c3ccc(F)cc3)cs2)c1
    -13%	-9%
3	COc1ccccc1NC(=O)c1cc2c(=O)oc3ccc(C)cc3c2s1
    -7%	-5%
4	CCCn1c(N)c(N2CCOCC2)c(=O)n(CC(=O)Nc2ccc(C)cc2)c1=O
    13%	29%
5	CC(C)c1ccc(S(=O)(=O)c2nnn3c2nc(N2CCCC2)c2sccc23)cc1
    -21%	1%
6	O=C(O)c1ccc(Sc2ccccc2C(=O)O)c([N+](=O)[O-])c1
    3%	5%
7	COc1ccccc1N1CCN(S(=O)(=O)CCNC(=O)COc2ccccc2F)CC1
    0%	7%
8	O=C(Nc1ccccc1Cl)C12CC3CC(CC(C3)C1)C2
    20%	11%
9	CCOc1ccc(C(=O)Nc2scc(-c3ccc(F)cc3)c2C(=O)OC)cc1
    0%	-10%
10	Cc1cc(OCC(=O)Nc2ccc3nsnc3c2)cc(C)c1Cl
    5%	1%
11	CN(Cc1ccccc1)C(=O)c1cccc(NC(=O)c2nsc3ccccc23)c1
    116%[activator]	42%[activator]
12	Cc1ccc(NS(=O)(=O)c2ccc3[nH]c(=O)oc3c2)c(C)c1
    -19%	1%
13	CCNC(=S)N/N=C(/C)c1cccc(F)c1
    39%[activator]	-13%
14	O=C(NCc1ccc(Cl)cc1)C1CCC(CNS(=O)(=O)c2ccccc2)CC1 (centres undefined)
    0%	0%
15	CCC(=O)N1c2ccccc2CC1C(=O)NCCCN1CCN(c2ccc(OC)cc2)CC1 (centres undefined)
    -25%	-18%
16	COc1ccccc1C(=O)Nc1ccc2oc(-c3cccc(Cl)c3Cl)nc2c1
    -10%	-12%
17	Cc1ccc(-n2nnnc2C(C)(C)N2CCOCC2)cc1
    0%	-1%
18	O=C(/C=C/c1c(Cl)cccc1Cl)c1ccc(O)cc1
    0%	5%
19	COc1cc(C#N)ccc1OC(C)C(=O)c1ccc(Br)cc1 (centres undefined)
    -5%	-1%[1.06 µM]
20	CCN(CC)S(=O)(=O)c1ccc(NCc2ccccc2C#N)cc1
    12%	-2%
21	Cc1ccc(-c2csc(Nc3ccc(O)cc3)n2)c(C)c1
    152%[activator]	28%
22	CCOC(=O)C1=C(C)Nc2ncnn2C1c1cccc(O)c1 (centres undefined)
    1%	2%
23	COc1cc(OC)cc(C(=O)/C(=C\c2ccco2)c2nc3ccccc3o2)c1
    26%	19%
24	O=C(c1cc2cc(Br)ccc2o1)c1ccc(F)cc1F
    53%[activator]	12%
25	O=c1c2ccccc2nc(/C=C\c2ccccc2F)n1-c1ccc(O)cc1
    -10%	-7%
26	CC(=O)Nc1cccc(C(C)NC(=O)Nc2cc(Cl)cc(Cl)c2)c1 (centres undefined)
    0%	34%[activator]
27	COc1ccc(OC)c2[nH]c(C(=O)NCC(=O)Nc3ccc4c(c3)OCCO4)cc12
    6%	-1%
28	COC(=O)c1ccc(Cl)cc1NC(=O)Nc1nnc(N(C)C2CCCCC2)s1
    -10%	-3%
29	CCc1ccc(C(C)NC(=O)Cc2ccc(C)s2)cc1 (centres undefined)
    29%	30%
30	Cc1cc(C)c2nc(NC(=O)CCCn3c(=O)oc4ccccc43)sc2c1
    21%	-6%
31	COc1cc(OC)c(OC)cc1CC1C(=O)Nc2ccc(Br)cc21 (centres undefined)
    -16%	28%
32	CC(C)NC(=O)C(c1ccccc1)N1Cc2ccccc2C1=O (centres undefined)
    -4%	49%[activator]
33	O=C(NCCNC(=O)c1cc2ccccc2[nH]1)C(=O)Nc1cccc2ccccc12
    -2%	-1%
34	Cn1c(=O)c2c(-c3ccc(F)cc3)[nH]cc2n(C)c1=O
    6%	-1%
35	CC(C)Cn1cc(NC(=O)NCC2CCN(Cc3cccc(Cl)c3)CC2)c2ccccc2c1=O
    17%	3%
36	C=C(Cl)COC(=O)c1ccc2c(c1)NC(=O)C(C)S2 (centres undefined)
    -4%	7%
37	CC1CCc2c(c(-c3ccccc3)nc3ccc4ccccc4c23)C1 (centres undefined)
    -3%	0%
38	CCN(CC)CCNC(=O)c1cn(CC)c2ccc(S(=O)(=O)N(C)C3CCCCC3)cc2c1=O
    0%	31%[activator]
39	Cc1c(Cl)cccc1-n1nnc(-c2nc(-c3ccc4c(c3)OCO4)no2)c1C
    0%	0%
40	COc1cccc(CNC(=O)c2sc3nc(C)cc(C)c3c2-n2cccc2)c1OC
    0%	-16%
41	O=C1C2CCCCCC1CN(Cc1ccccc1)C2
    0%	18%
42	Cc1cccc(N2CCN(c3ccc(C(=O)O)cc3NC(=O)c3cccc(Cl)c3)CC2C)c1 (centres undefined)
    -17%	-16%
43	CCOC(=O)c1ccc(NC(=O)N2CCN(Cc3ccc(Cl)s3)CC2)cc1
    0%	1%
44	CCCN(CC)c1ccc(/C=N/NC(=S)Nc2ccc(CC)cc2)cc1
    24%	12%
45	c1ccc(CN2C3=NCCCN3c3ccccc32)cc1
    -5%	-4%
46	Cc1nnc(NC(=O)C(=O)c2cc(C)n(-c3ccc(C)c(C)c3)c2C)s1
    4%	13%
47	COc1ccc(CNC(=O)C(CC(C)C)N2Cc3ccccc3C2=O)cc1 (centres undefined)
    -4%	54%[activator]
48	CNC(=O)NC(=O)CSC1=Nc2ccccc2CS1
    3%	-10%
49	CCc1c(C)c2cc3c(c(C)c2oc1=O)OCN(CCc1ccccc1F)C3
    90%[activator]	?
50	Cc1ccc(-c2csc(Nc3ccccn3)n2)cc1
    25%	-22%
51	CCc1ccccc1NC(=O)Cn1c(=O)ccc2cc(S(=O)(=O)N3CCCC3)ccc21
    -20%	-19%
52	Cc1ccc(NC(=O)/C(C#N)=C/c2ccc(-c3ccc(Cl)c(C(=O)O)c3)o2)cc1C
    -8%	-8%
53	CCCNc1nc2ccccc2nc1C(=O)Nc1cc(C)ccc1C
    -4%	1%
54	COc1ccc(NC(=O)c2oc3ccccc3c2NC(=O)c2cc(=O)c3cc(Cl)ccc3o2)cc1
    -21%	2%
55	COC(=O)CSc1nnc2c3c(c(C#N)c(Nc4ccccc4)n12)CC(C)(C)OC3
    1%	-10%
56	CCNc1cc(C)nc(Nc2ccc(NC(=O)c3ccccc3F)cc2)n1
    ?	28µM*
57	COc1ccc(NC(=O)c2ccc3c(SCC(=O)O)c4c(nc3c2)CCCC4)cc1OC
    -4%	4%
58	Cc1ccc(Nc2ccc([N+](=O)[O-])c3cnccc23)cc1
    -17%	-25%
59	Cc1cc(C)cc(Nc2ncnc3onc(-c4ccc(F)cc4)c23)c1
    -2%	14%
60	COc1ccc(CC(=O)NCc2cccc(C(F)(F)F)c2)cc1
    27%	19%

(more compounds)
Order of results – 2A firefly	2A Renilla
61	COc1ccc(N/C=C/C(=O)c2ccc(C(C)C)cc2)cc1
    113%[activator]	6%
62	Cc1ccc2cc(CCCl)c(Cl)nc2c1
    35%[activator]	-3%
63	CCc1ccccc1Nc1nc2cc(Cl)c(Cl)cc2nc1-n1nc(C)cc1C
    -8%	-11%
64	COc1cc(C2CC(=O)Nc3c2c(=O)nc2c(C)cccn32)cc(OC)c1OC (centres undefined)
    -11%	-14%
65	CCCCOC(=O)c1ccc(NC(=O)C2(c3cccs3)CCOCC2)cc1
    -16%	-8%
66	O=C(O)CSc1nc2ccc(NC(=O)COc3ccc(Cl)cc3)cc2s1
    -3%	-15%
67	CCOc1ccc(C(=O)Nc2c(C(=O)Nc3ccccc3F)oc3ccccc23)cc1OCC
    -22%	-15%
68	CCOc1ccccc1NC(=O)c1c(NC(=O)c2cccc(C)c2)sc2c1CCC2
    -12%	0%
69	COc1ccc(C)cc1NS(=O)(=O)c1ccc(-c2cnc(C3CC3)o2)cc1
    14µM*	16µM*
70	CC(C)CC(=O)NCCNC(=O)c1cc2ccccc2n1C
    -6%	-5%
71	CCNC(=O)c1cc(-c2ccccn2)nc2ccccc12
    16%	4%
72	COc1cccc(-c2nn3c(CN4CCCCCC4)nnc3s2)c1
    0%	25%
73	N#Cc1c(N)nc2c(c1-c1ccc(Br)cc1)CCCC2
    -7%	-11%
74	CC(Nc1ccc(S(N)(=O)=O)cc1[N+](=O)[O-])c1ccco1 (centres undefined)
    18%	-10%
75	Cc1c2cnn(CC(=O)NCCc3ccccc3)c(=O)c2c(C)n1Cc1ccccc1Cl
    3%	-6%
76	O=C(c1ccccc1)c1ccc(OCC(=O)N(Cc2nc3ccccc3c(=O)[nH]2)CC2CCCO2)cc1 (centres undefined)
    -7%	1%
77	O=C1CCCC2=C1C(c1ccc(Cl)cc1Cl)C1=C(CCCC1=O)O2
    -6%	19%
78	Cc1ccccc1C1=CCN(c2ncc(NC(=O)c3ccc(Cl)cc3)cc2C(=O)O)CC1
    -18%	-2%
79	Cc1ccc(OCC(=O)Nc2cccc3ccc(C)nc23)c(C)c1
    -10%	-5%
80	Cn1c(C(=O)N2CCc3ccccc3C2)cc2c(=O)n3ccccc3nc21
    162%[activator]	21%
81	CC(C)(C)C1CCC(NC(=O)c2ccncc2)CC1 (centres undefined)
    -23%	?
82	CCOC(=O)c1c(NC=C(C#N)C#N)sc(C)c1CC
    14%	15%
83	CC(NC(=O)c1cccs1)C1CC2CCC1C2 (centres undefined)
    5%	-2%
84	CCOc1ccccc1CNC(=O)CSc1nnc(C)c2c(C)n(-c3ccccc3)nc12
    -16%	-17%
85	O=S(=O)(NCCc1ccc(-n2cccn2)cc1)c1ccc(F)cc1
    -30%	106%[activator]
86	COc1cc(OC)c(N(C)C(=O)c2sc3nc4n(c(=O)c3c2C)CCCC4)cc1Cl
    -7%	-3%
87	O=C1OCC2=C1C(c1ccc3c(c1)OCO3)CC(=O)N2c1ccc(F)cc1 (centres undefined)
    -13%	3%
88	O=C(Nc1ccc(-c2nnc3n2CCCCC3)cc1)c1n[nH]c(=O)c2ccccc12
    3%	13%
89	O=C(c1ccccc1OC(F)F)N1CCCCC1
    1%	4%
90	O=C(CSc1nccn1Cc1ccco1)Nc1ccc(OC(F)(F)F)cc1
    96%[activator]	29%
91	O=C(Cc1coc(-c2ccccc2)n1)NC1CCCCCC1
    0%	0%
92	COc1ccc(NC(=O)CNC(=O)Cn2c(C)cc3ccccc3c2=O)cc1OC
    -12%	-1%
93	CCC(=O)N1CCN(c2oc(/C=C/c3ccc(C)cc3)nc2C#N)CC1
    13%	-3%
94	CC(C)c1cc(C(=O)NCc2ccccc2)no1
    181%[activator]	52%[activator]
95	O=[N+]([O-])c1cccc2nc(/C=C/c3ccccc3OC(F)F)ccc12
    128%[activator]	-20%
96	COc1ccc(-c2c(NC(=O)c3ccc([N+](=O)[O-])cc3)oc3ccccc3c2=O)cc1OC
    -4%	0%
97	CCc1ccc(-n2nc(C)c3c(C(=O)Nc4cc(OC)cc(OC)c4)cc(C)nc32)cc1
    7%	-4%
98	COc1ccc(C)cc1NC(=O)C(C)OC(=O)c1ccsc1 (centres undefined)
    17%	20%
99	Cc1ncsc1C(=O)NCc1cccs1
    1%	12%
100	CCOc1ccc2nc(N(Cc3cccnc3)C(=O)C3=COCCO3)sc2c1
    119%[activator]	36%[activator]
101	COc1ccc(CC(=O)Nc2sc3c(c2C(=O)Nc2c(C)cccc2C)CCCCC3)cc1
    -3%	-3%
102	O=C(NCCC(=O)N1CCCC1)c1ccc2c(c1)CCC2
    9%	3%
103	COCc1cc(C)n(CC(=O)Nc2cc(C)c(C)cc2Br)c(=O)c1C#N
    -9%	-28%
104	S=C(NCc1ccccc1)Nc1ccccc1I
    17%	0%
105	O=C(O)c1ccc(Cl)cc1F
    8%	9%
106	COc1ccccc1OCC(O)CN1CCN(CC(=O)Nc2c(C)cccc2C)CC1 (centres undefined)
    -23%	-13%
107	O=C(Nc1ncc(Cc2ccccc2)s1)C1CC(=O)N(Cc2ccco2)C1 (centres undefined)
    -3%	-10%
108	COc1ccc(-n2c(SCC(=O)NCc3ccc(C)cc3)nc3n[nH]c(C)c3c2=N)cc1
    -22%	51%[activator]

Compound activity as filed in PubChem BioAssay.

An excerpt; the hit share may differ from the screen's.
